Screening data deposited in PubChem by Broad Institute.
MITF inhib: inhibitors of MITF, primary screen, MITF inhibitor project, cell-based, luminescence | TRPM1 promoter luciferase, 24 h | 0.28% of 37,000 active | AID 2240, 2010 | inhibition, % (test concentration not listed);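 active means most replicates at 85% or more, or half of them and the mean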;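 further: human melanocyte line stably carrying TRPM1 promoter luciferase reporter; 0% = vehicle wells and 100% = a positive control; the first replicate is given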
* marks the source's active call; other numbers are inactive results. Not all compounds are listed (hit frequency here may not be typical).

No.	Compound	MITF inhib
1	CN(C)c1ccc(NC(=O)CC2NCCNC2=O)cc1 (stereo not drawn)	3
2	Cn1c(=O)c(C(=O)NCCCO)c(O)c2ccccc21	-16
3	COc1ccc(Cl)cc1NC(=O)CC1NCCNC1=O (stereo not drawn)	1
4	O=C(CSc1nnnn1-c1cccc2ccccc12)Nc1ccc(N2CCOCC2)c(Cl)c1	19
5	Cc1ccccc1NS(=O)(=O)c1cc(OCC(N)=O)c(C)cc1Cl	-8
6	Cc1ccc(C)c(NC(=O)CSc2ncccn2)c1	-7
7	COc1ccc(NC(=O)CSc2ccccn2)c([N+](=O)[O-])c1	-62
8	COC(=O)COc1ccc(NC(=O)c2ccc([N+](=O)[O-])c(C)c2)cc1	-2
9	O=C(CSc1nc2ccccc2s1)Nc1cccc(Cl)c1Cl	29
10	COC(=O)CNC(=O)c1cc(-c2ccncc2)nc2c(C)c(Cl)ccc12	-9
11	O=C(Nc1ccc(F)cc1)C1CC(=O)n2cnnc2N1 (stereo not drawn)	2
12	CC(=O)c1c(C)oc(NC(=O)Cn2cnc3ccccc3c2=O)c1C#N	-21
13	O=C(NC(=S)NCc1cccnc1)c1ccc(-c2cccc([N+](=O)[O-])c2)o1	-16
14	CCOc1ccc(C(C)C)cc1S(=O)(=O)n1c(C)nc2ccccc21	8
15	COc1cc(NC(=O)COc2ccc(Cl)cc2C)c(OC)cc1Cl	-39
16	Cc1cc(C)n(CC(O)COc2ccc(C(=O)c3ccc(Cl)cc3)cc2)n1 (stereo not drawn)	14
17	Cc1cccc(C)c1NC(=O)CSc1nc2c(cc1C#N)CCC2	5
18	Cc1ccccc1OCC(=O)Nc1ccc([N+](=O)[O-])cc1O	26
19	COc1c(S(=O)(=O)NCCN2CCOCC2)ccc(Cl)c1Cl	-18
20	Nc1cc(N)nc(SCC(=O)N(c2ccccc2)c2ccccc2)n1	-11

Later entries.
No.	Compound	MITF inhib
21	O=C(NCc1cccnc1)c1ccccc1[N+](=O)[O-]	5
22	Cc1c(Br)c(C(F)(F)F)nn1CC(=O)Nc1cc(O)cc([N+](=O)[O-])c1	31
23	O=C(CCCN1C(=O)c2ccccc2C1=O)Nc1cccc(Cl)c1	-8
24	Cc1ccc(NC(=O)CSC2CC(=O)N(c3ccc(Cl)cc3)C2=O)cc1 (stereo not drawn)	-14
25	COc1ccc(OC)c(NC(=O)CSc2nc3ccccc3n2C2CCCCC2)c1	43
26	Cc1cc(OCC(=O)Nc2ccccc2C(=O)O)cc(C)c1Cl	-42
27	O=S(=O)(Nc1ncccn1)c1ccc(NC(=S)Nc2ccc3c(c2)OCCO3)cc1	-45
28	O=C(Cn1nnc(-c2ccccc2)n1)Nc1ccccc1C(=O)O	-35
29	CC(CN1CCCCC1)NC(=O)c1cc(-c2ccccn2)nc2ccc(Br)cc12 (stereo not drawn)	-3
30	Cc1cc(CN2CCN(CCC#N)CC2)c(O)c(C2(C)CCCCC2)c1	6
31	O=S(=O)(NCc1ccccn1)c1cc(Cl)c(Cl)cc1Cl	6
32	CN1CCN(CCCNc2c([N+](=O)[O-])c(=O)oc3ccccc23)CC1	-12
33	O=C(O)CN(c1ccccc1)S(=O)(=O)c1ccc(Cl)c(Cl)c1	-11
34	COc1ccccc1OCCn1c(S(=O)(=O)O)nc2ccccc21	-7
35	CCn1c(SCC(=O)Nc2cccc(Br)c2)nnc1-c1ccc(Cl)cc1Cl	81
36	COC(=O)Cc1c(C)nc2nc(-c3ccco3)[nH]n2c1=O	-18
37	CN(c1cccc(NC(=O)CN2C(=O)c3cccc4cccc2c34)c1)S(C)(=O)=O	-37
38	CC(C)C(NS(=O)(=O)c1ccc(Oc2ccccc2Cl)cc1)C(=O)O (stereo not drawn)	-34
39	CCCOc1ccc(Oc2nc(NC(C)(C)C)nc(N3CCOCC3)n2)nn1	1
40	Cc1nnc(NCc2ccco2)[nH]c1=O	-2

Additional results
No.	Compound	MITF inhib
41	CCOC(=O)c1c(NC(=O)CSc2nc(C)ccc2C#N)sc2c1CCC2	23
42	O=C(NC(=S)NCc1cccnc1)c1cc2ccccc2o1	-8
43	CCOC(=O)c1c(NC(=O)c2nc3nc(C)cc(C(F)F)n3n2)sc(C)c1C	-6
44	COc1ccc(S(=O)(=O)N(C)CC(=O)O)cc1C	-15
45	N#Cc1ccccc1CSc1nc(N)cc(=O)[nH]1	6
46	COc1ccc(NC(=O)CCCSc2nc(N)c3c(C)c(C)sc3n2)cc1	33
47	Cc1nn(-c2nnc(C)c(=O)[nH]2)c(C)c1SCC(=O)Nc1ccc(C(C)C)cc1	4
48	O=C(CSc1nnc(-c2ccccc2Cl)n1-c1ccccc1)N1CCc2ccccc21	8
49	COc1ccc(NC(=O)CSc2ccccn2)cc1Cl	-65
50	COC(=O)c1ccc(NC(=O)CN2C(=O)C3C4CC(c5ccccc5)C(C4)C3C2=O)cc1 (stereo not drawn)	-9
51	O=C(COc1ccc(Cl)cc1Cl)Nc1ccc(C(=O)Nc2ccccc2C(=O)O)cc1	-17
52	O=C(CSc1ccccc1)Nc1cccc(Oc2ccc3c(c2)C(=O)NC3=O)c1	-13
53	Cc1cc(C)c(OCC(=O)Nc2cccnc2)c(Br)c1	-35
54	COc1ccc(NC(=O)CN(c2cc(Cl)c(Cl)cc2Cl)S(C)(=O)=O)cc1Cl	28
55	CCNS(=O)(=O)c1cc(C)ccc1-n1cnnn1	-5
56	COc1ccc(C(=O)NCC(=O)Nc2cccc(C(F)(F)F)c2)cc1	-11
57	COC(=O)c1cccc(NC(=O)CN(c2cccc(F)c2)S(C)(=O)=O)c1C	-19
58	Cc1nc(CSc2nc3[nH]ncc3c(=O)n2-c2ccccc2)cs1	-6
59	O=C(CSc1nc(-c2ccccc2)cc(C(F)(F)F)n1)Nc1ccc(F)cc1	11
60	COc1ccc(-c2nc(SCC(=O)Nc3ccc4ccccc4c3)n[nH]2)cc1	-2

Remaining list, next part
No.	Compound	MITF inhib
61	Cc1cc(-c2ccccc2)nc(SCC(=O)O)n1	3
62	COc1ccc(F)cc1S(=O)(=O)NCc1cccnc1	-10
63	CCC(=O)Nc1ccc(OCc2nc3ccccc3s2)cc1	38
64	O=C(NCCCn1ccnc1)c1sc2cccc(F)c2c1Cl	8
65	O=C(Nc1ccc(OCc2nc3ccccc3s2)cc1)c1cccc(I)c1	-7
66	NC(=O)c1c(NC(=O)C2CC(=O)OC23CCCCC3)sc2c1CCCCC2 (stereo not drawn)	-3
67	Cc1ccc(C(=O)CC2(O)C(=O)N(Cc3cccc4ccccc34)c3ccccc32)o1 (stereo not drawn)	17
68	Cn1c(=O)c2c(nc(SCc3nn[nH]n3)n2Cc2ccccc2F)n(C)c1=O	7
69	NC(=O)CN(c1cc(Cl)ccc1Cl)S(=O)(=O)c1ccccc1	-9
70	Cc1c(Cl)ccc2c(C(=O)Nc3ccc(S(=O)(=O)N4CCOCC4)cc3)cc(-c3cccnc3)nc12	8
71	COc1cc(NC(=O)Cn2nc(C(F)(F)F)cc2C)cc([N+](=O)[O-])c1	1
72	Cc1ccc2nc(-c3cccnc3)cc(C(=O)Nc3scc(-c4ccc(C)c(C)c4)c3C(N)=O)c2c1	-9
73	O=C(O)CCCC(=O)Nc1ccc(I)cc1	4
74	O=C(O)c1cccc2cccc(SC(C(=O)O)c3ccccc3)c12 (stereo not drawn)	1
75	CN(C)c1nc(N)nc(CSc2nnnn2-c2ccc(F)cc2)n1	-19
76	Cc1ccc(-c2nc(SCC(=O)Nc3cc(C)c(C)cc3Br)n[nH]2)cc1	-5
77	CCCN1C(=O)C(O)(CC(=O)c2ccc(OC)c([N+](=O)[O-])c2)c2ccccc21 (stereo not drawn)	7
78	CC(=O)Nc1ccccc1-c1nc2ccccc2nc1OCC(=O)c1ccc(Cl)cc1	-15
79	Cc1ccc(-c2cc(C)nc(SCC(=O)Nc3ccc(C)c(C)c3)n2)cc1	4
80	N#Cc1cc2c(nc1SCC(=O)Nc1ccccc1OC(F)(F)F)CCCC2	-11

More structures:
No.	Compound	MITF inhib
81	COc1ccccc1CN=c1c([N+](=O)[O-])nn(-c2ccccc2)n1O	47
82	Cc1ccc(NC(=O)c2ccco2)c(NC(=O)COc2ccccc2Cl)c1	-1
83	O=C(O)c1cccc(CSc2n[nH]c(-c3ccc(Cl)cc3)n2)c1	-6
84	COC(=O)c1ccc(NC(=O)CSc2nnnn2C2CC3CCC2C3)cc1 (stereo not drawn)	22
85	COC(=O)CCCC(=O)Nc1ccc([N+](=O)[O-])cc1	-1
86	Cc1ccc(C)c(OCC(=O)Nc2cc(C(=O)O)cc(C(=O)O)c2)c1	-6
87	Cc1cccc(NC(=O)CNS(=O)(=O)c2ccc(Br)cc2)c1	-43
88	COc1ccc(NC(=O)CCn2cnc3ccccc3c2=O)cc1OC	-21
89	O=C(O)CCN1C(=O)c2ccc(NC(=O)c3ccco3)cc2C1=O	-15
90	O=C(COc1ccc(Cl)cc1Cl)Nc1ccccc1CO	-45
91	COc1cc(C(=O)Nc2ccc(S(=O)(=O)Nc3nccs3)cc2)cc(OC)c1OC	5
92	COc1ccc(OC)c(NC(=O)CNC(=O)c2ccc(OC)c(OC)c2)c1	-7
93	CC1(C)Cc2c(c(N3CCCC3)nc3sc4c(NCc5ccco5)ncnc4c23)CO1	1
94	Cc1ccc(NC(=O)CNC(=O)c2ccc([N+](=O)[O-])cc2)cc1	-4
95	O=C(CC1(O)C(=O)Nc2ccccc21)c1ccc(-n2cccc2)cc1 (stereo not drawn)	-9
96	COc1ccc(C)cc1NC(=O)C(C)NS(=O)(=O)c1ccc(C)cc1 (stereo not drawn)	9
97	COc1ccc([N+](=O)[O-])cc1NC(=O)CCN1CCOCC1	5
98	CCOc1ccc(-n2cnnn2)cc1S(=O)(=O)NCc1ccccc1	-25
99	Cc1cc(C)cc(NC(=O)CN2CCC(C(N)=O)(N3CCCCC3)CC2)c1	5
100	Cc1cc(C)n(C(=O)c2ccc(COc3c(F)c(F)cc(F)c3F)o2)n1	-20

(next part)
No.	Compound	MITF inhib
101	COc1ccc(OC)c(C2C(C(=O)Nc3ccccc3OC)=C(C)Nc3ncnn32)c1 (stereo not drawn)	-10
102	O=C(CSc1nnnn1-c1cccc2ccccc12)c1ccc(O)c(O)c1	1
103	Cn1c(=O)c2ccccc2n(CC(=O)Nc2ccccc2[N+](=O)[O-])c1=O	33
104	O=C(CSc1nnnn1-c1ccccc1Cl)Nc1ccc(F)cc1	-31
105	CCOC(=O)c1sc2ncn(CC(=O)Nc3ccccc3Cl)c(=O)c2c1C	5
106	Cc1c(CCC(=O)O)c(=O)oc2c(C)c(OCc3cccc4ccccc34)ccc12	-7
107	Cc1cc(OCC(=O)Nc2ncn[nH]2)ccc1Cl	-26
108	Cc1nn(C(=O)Cn2cc([N+](=O)[O-])cn2)c(C)c1Br	21
109	Cc1ccc([N+](=O)[O-])cc1NC(=O)CSc1nnnn1C1CC2CCC1C2 (stereo not drawn)	17
110	CCc1ccc(OCC(=O)NC(=S)Nc2cccc3nsnc23)cc1	21
111	Cc1cccc(NC(=O)CCn2cnc3ccccc3c2=O)c1C	-20
112	O=C(CSc1nnc(-c2ccncc2)o1)c1ccc2c(c1)OCCO2	1
113	COc1ccc(OC)c(NC(=O)CSc2nnc(-c3ccc(C)c(Cl)c3)n2-c2ccccc2)c1	29
114	O=C(Cn1nnc(-c2ccccc2F)n1)NCc1ccco1	4
115	CC1(C)CC(=O)C2=C(C1)N(Cc1cccnc1)C(=O)C2(NC(=O)C1CC1)C(F)(F)F (stereo not drawn)	-2
116	O=C(CCN1C(=O)C2C3C=CC(C4CC34)C2C1=O)Nc1ccc(Br)cc1Cl (stereo not drawn)	-34
117	CCn1c(SCC(=O)Nc2ccc(Cl)cc2Cl)nnc1-c1ccccc1	6
118	COc1ccc(S(=O)(=O)NCc2cccnc2)c(Cl)c1Cl	-16
119	CC(C)c1ccc(S(=O)(=O)Nc2ccc(O)c(Sc3ncn[nH]3)c2)cc1	6
120	N#Cc1c(NC(=O)C2CC(c3ccccc3O)=NO2)sc2c1CCCC2 (stereo not drawn)	-12

Part of the list above in order of SMILES length, low to high.
No.	Compound	MITF inhib
114	O=C(Cn1nnc(-c2ccccc2F)n1)NCc1ccco1	4
108	Cc1nn(C(=O)Cn2cc([N+](=O)[O-])cn2)c(C)c1Br	21
102	O=C(CSc1nnnn1-c1cccc2ccccc12)c1ccc(O)c(O)c1	1

New compounds follow
No.	Compound	MITF inhib
121	CCCN(Cc1cc2cccc(C)c2[nH]c1=O)S(=O)(=O)c1ccccc1	24
122	O=C(CC1NCCNC1=O)Nc1cccc(Cl)c1 (stereo not drawn)	-6
123	Cc1cc(=O)oc2cc(OC(C)C(=O)Nc3ccc(N4CCOCC4)cc3)ccc12 (stereo not drawn)	-15
124	Cc1ccnc(SCc2cccc(C(=O)O)c2)n1	-11
125	CCOC(=O)c1cc(COc2ccc3oc4ccccc4c3c2)c(C)o1	-75
126	COc1ccc(NC(=O)Cn2cnc3sc(-c4ccccc4)cc3c2=O)c([N+](=O)[O-])c1	-12
127	COc1ccc(OC)c(NC(=O)COc2c(C)cc(Cl)cc2Cl)c1	-15
128	CCCCn1nnnc1NCc1cccnc1	-8
129	Cc1ccc2nc(-c3ccc(NC(=O)CN4C(=O)c5ccccc5C4=O)cc3)sc2c1	6
130	O=C(CSc1ncnc2sc3c(c12)CCC3)Nc1cccc(-c2nc3ccccc3s2)c1	-69
131	O=C(COc1ccccc1Cl)Nc1ccc(C(=O)Nc2ccccc2C(=O)O)cc1	1

Grouped by structure: those above containing a cyano group (seven)
No.	Compound	MITF inhib
12	CC(=O)c1c(C)oc(NC(=O)Cn2cnc3ccccc3c2=O)c1C#N	-21
17	Cc1cccc(C)c1NC(=O)CSc1nc2c(cc1C#N)CCC2	5
30	Cc1cc(CN2CCN(CCC#N)CC2)c(O)c(C2(C)CCCCC2)c1	6
41	CCOC(=O)c1c(NC(=O)CSc2nc(C)ccc2C#N)sc2c1CCC2	23
45	N#Cc1ccccc1CSc1nc(N)cc(=O)[nH]1	6
80	N#Cc1cc2c(nc1SCC(=O)Nc1ccccc1OC(F)(F)F)CCCC2	-11
120	N#Cc1c(NC(=O)C2CC(c3ccccc3O)=NO2)sc2c1CCCC2 (stereo not drawn)	-12
